Screening data as filed in PubChem.
Sa helicase inh = blocks Staphylococcus aureus DNA helicase; purified S. aureus helicase, fluorescence unwinding assay; about half of the hits fall short of the stated cut; actives 0.05% (n = 120,000); inhibition, %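 (tested at about 80 µM)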;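 active means both duplicates at 50% or more, or one of them with a favoured structure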;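 further: 0% = mean of negative control wells and 100% = mean of positive control wells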
MgrA-DNA mod = modulators of Staphylococcus aureus MgrA DNA binding | inhibition, %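 (about 10 µg/mL by stock and volumes)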 | AID 602314 | fluorescence polarization | actives 0.13% (n = 84,000);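 active means above 50% in either of two replicates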;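 further: 0% = protein plus DNA without compound and 100% = DNA alone without protein; higher means less MgrA bound to DNA so lower polarization; one replicate is shown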
The depositor's hits bear a star; / = no result given; & = joins results of further samples.

Start of the listing, in advance, four compounds:
item	SMILES	Sa helicase inh	MgrA-DNA mod
1	O=C(Nc1ccccc1)O/N=C1\CCc2ccccc21	/	1.8
2	CCCOC(=O)c1cc(=O)[nH]c2ccccc12	16&-3	-0.8
3	CCSC1=NCCN1C(=O)c1ccc(S(=O)(=O)N(C)C)cc1	8	/
4	O=S(=O)(CCC1CCCC/C1=N/O)c1ccc(Cl)cc1 (stereo not given)	/	-1.9

Main list, repeating the preview:
item	SMILES	Sa helicase inh	MgrA-DNA mod
1	O=C(Nc1ccccc1)O/N=C1\CCc2ccccc21	/	1.8
2	CCCOC(=O)c1cc(=O)[nH]c2ccccc12	16&-3	-0.8
3	CCSC1=NCCN1C(=O)c1ccc(S(=O)(=O)N(C)C)cc1	8	/
4	O=S(=O)(CCC1CCCC/C1=N/O)c1ccc(Cl)cc1 (stereo not given)	/	-1.9
5	CCSC1=N/C(=C\c2cccnc2)C(=O)N1c1ccccc1	8	0.1
6	CNC(=O)C(C)n1ccc2cc(S(=O)(=O)N3CCCC3)ccc21 (stereo not given)	-21	/
7	CC(=O)N(Cc1c(C#N)c2ccccc2n1C)c1ccccc1	3	-3.3
8	CCCC(=O)Nc1ccc(-c2nc3cc(C(C)C)ccc3o2)cc1	7	1.2
9	O=C(O)CCC(=O)N1CCc2ccccc21	2	-1.6
10	COC(=O)C1=C(C)N(c2ccc(OC)cc2)C(C)=C(C(=O)OC)C1c1ccccc1	9	3.7
11	Cc1ccc2[nH]cc(CCNC(=O)c3ccccc3)c2c1	5	4.9
12	Cn1ncc(C(=O)Nc2cc(Cl)ccc2Cl)c1-n1cccc1	/	-0.1
13	CCc1nc(C)cn1S(=O)(=O)c1ccc2c(c1)OCCO2	6	-2.9
14	O=C(O)c1cccnc1SC1CC(=O)N(Cc2ccccc2)C1=O (stereo not given)	1	-3.6
15	Cc1cc(NC(C)c2ccccc2)cc(=O)n1Cc1ccco1 (stereo not given)	8	/
16	COC(=O)c1scc(C)c1NC(=O)C1=Cc2cc(Cl)ccc2OC1	/	3.5
17	O=C(Cc1ccccc1)Nc1cccc(N2C(=O)C3CC=CCC3C2=O)c1 (stereo not given)	5	0.7
18	Cc1nnc(NC(=O)CC2CC3CCC2C3)s1 (stereo not given)	12	-7.4
19	Cc1ccc(-c2cc(C(F)F)nc(S(C)(=O)=O)n2)cc1	3	/
20	COc1cccc(C(=O)N2CCCc3ccccc32)c1	-9	/
21	CCCCNc1ccc(C(=O)O)cc1	1	-7.0
22	Cc1ccc(NC(=O)C2C3C=CC(C3)C2C(=O)O)cc1 (stereo not given)	/	-1.3
23	O=C1NCCN1CCNS(=O)(=O)c1cccs1	/	0.0
24	Cc1cc(-n2nc(C)cc2C)nc(NS(=O)(=O)c2ccccc2Cl)n1	/	2.9
25	COc1ccc(OC)c(/C=c2\s/c(=C(/C#N)c3nnc4n3CCCCC4)n(-c3ccccc3)c2=O)c1	-115	/
26	O=C(NCCC1=CCCCC1)c1cc(=O)[nH]c2ccccc12	15	/
27	O=C(CN1CCN(c2ncccn2)CC1)N(Cc1ccccc1)c1ccc(F)cc1	-1	-1.3
28	CCOCCN1CCN(c2c3c(nc4cc(-c5cccc(C)c5)nn24)CCC3)CC1	10	-3.8
29	CN(C(=O)C(Cc1ccccc1)n1cccc1)C1CCCCC1 (stereo not given)	18	-0.4
30	COc1ccc(NC(=O)c2ccco2)cc1NC(=O)C(C)C	11	-0.4
31	CC(C)(C)NC(=O)N1CCC2(CC1)CC(=O)c1ccccc1O2	6	/
32	O=C(CSc1nnc(CNC(=O)c2cccs2)o1)NCC1CCCO1 (stereo not given)	7	/
33	COc1cccc(NC(=O)CCS(=O)(=O)c2ccccc2)c1	2	7.4
34	Cn1c(O)c(N=NC(=O)c2ccccc2)c2ccccc21	6	4.0
35	CC(C)(C)Nc1nc(NN)nc(NC(C)(C)C)n1	-4	2.5
36	COc1ccc(C2=NN(CN3C(=O)C(=O)c4cc(Br)ccc43)C(c3ccc(OC)cc3)C2)cc1 (stereo not given)	/	1.1
37	O=C(NC1CC(=O)N(c2ccccc2)C1)C1CC1 (stereo not given)	9	/
38	O=C(Nc1nccs1)c1ccc(S(=O)(=O)NCC2CCCCC2)cc1	5	-0.2
39	O=C(c1ccsc1)N1CC=C(c2ccccc2)CC1	/	1.4
40	O=C(Nc1ccccc1N1CCCC1)c1ccco1	8	-2.8
41	Fc1ccccc1Nc1nc(NCc2ccccc2)c2ccccc2n1	-11	0.3
42	O=C(NC1=NCCS1)C1Cc2ccccc2CN1C(=O)c1ccco1 (stereo not given)	-8	/
43	COc1cc(C(Nc2ccc(S(=O)(=O)N3CCCC3)cc2)C(=O)NC(C)(C)C)cc(OC)c1OC (stereo not given)	11	-0.3
44	CCOC(=O)c1sc2ncccc2c1N	/	0.2
45	CC(=O)NC(C(N)=O)C(SCc1ccccc1)c1c[nH]c2ccccc12 (stereo not given)	7	/
46	Cn1c(/C(C#N)=N/OC(=O)c2ccccc2)nc2ccccc21	6	/
47	Cc1ccc(-n2nc(C)c(C3=CCCCC3)c2N)cc1	-13	-0.3
48	COCCNC(=O)c1ccc(-c2ccccc2)s1	-15	/
49	COc1ccc(CNc2nc(SC)n[nH]2)cc1OC	1	-1.1
50	CCOC(=O)c1c2n(c3ccc(O)cc13)CCCCC2	-12	-6.2
51	COc1ccc(-c2csc(=Nc3ccccc3)n2N2CCOCC2)cc1	12	/
52	COc1ccc(S(=O)(=O)NC(C)C(=O)N2CCN(C)CC2)cc1Cl (stereo not given)	9	6.8
53	O=C(Nc1ccccc1)NC1CCCC1	/	-2.1
54	COC(=O)c1cc([N+](=O)[O-])ccc1Sc1ccccc1	/	2.7
55	O=C1CCc2ccccc2CN1	1	1.1
56	O=C(CCC1N=C2c3ccccc3N=C(SCc3ccc(F)cc3)N2C1=O)NCc1ccco1 (stereo not given)	3	/
57	COC(=O)C12C3CC4C5C(C(=NNC(N)=S)C41)C2C53 (stereo not given)	0	/
58	Cc1n[nH]c(C)c1N1C(=O)c2cccc3c(N4CCCCC4)ccc(c23)C1=O	-103	5.3
59	C/C(=C/C(=O)N1CCN(C)CC1)C(=O)O	6	2.0
60	CCCCCC(C)N (stereo not given)	/	0.8

Quoted at random: two entries already listed.
item	SMILES	Sa helicase inh	MgrA-DNA mod
59	C/C(=C/C(=O)N1CCN(C)CC1)C(=O)O	6	2.0
45	CC(=O)NC(C(N)=O)C(SCc1ccccc1)c1c[nH]c2ccccc12 (stereo not given)	7	/

Next entries follow.
item	SMILES	Sa helicase inh	MgrA-DNA mod
61	C#CC(C)OC(=O)Nc1cnccc1C(F)(F)F (stereo not given)	-20	/
62	CC(C)(C)NC(=O)CCSc1ccccc1	20	0.7
63	CC(C(=O)N1CCc2ccccc21)n1nc(-c2ccccc2)ccc1=O (stereo not given)	4	/
64	CC(NC(=O)CSc1nn(-c2ccccc2)c(=S)s1)c1ccccc1 (stereo not given)	2	-0.3
65	CCN1C(=O)c2cccc3c(S(=O)(=O)NC4CCCC4)ccc1c23	11	/
66	CCCCN(c1ccccc1C(=O)O)S(=O)(=O)c1ccc(OC)cc1	6	-0.2
67	Cc1nc(C(=O)O)nn1-c1cccc(C(F)(F)F)c1	6	/
68	O=C(c1cccc(NC2=NC3CS(=O)(=O)CC3S2)c1)N1CCN(Cc2ccc3c(c2)OCO3)CC1 (stereo not given)	7	/
69	COc1cc(C(=O)OC(C)C(=O)NCC2CCCCC2)cc(NC(=O)c2ccco2)c1OC (stereo not given)	8	/
70	Cc1nc(-c2ccc(S(=O)(=O)NCc3ccccn3)s2)cs1	/	1.0
71	O=C(N/N=C/C=C/c1ccccc1)c1ccccc1O	29	5.2
72	COc1ccc2c(c1)c1nc3ccccc3nc1n2CC(C)C	-300	/
73	CCOc1cccc(/C=C2\SC(=S)N(CC)C2=O)c1O	5	-1.6
74	Cn1cc(Br)c(-c2cccc(NC(=O)CC(C)(C)CC(=O)O)c2)n1	/	-1.9
75	CCCn1c(=O)c(C(=O)NCCc2ccccc2)c(O)c2ccccc21	2	-0.6
76	CC(=O)NC(Nc1cccc(F)c1)(C(F)(F)F)C(F)(F)F	-12	/
77	CN(C)c1cccc(C(=O)N/C=C/n2cnc3cc(C(F)(F)F)ccc32)c1	36	2.1
78	O=C1OCCC1Sc1nnc(Cc2cccs2)n1C1CCCCC1 (stereo not given)	5	/
79	C=CCN(CC=C)Cn1[nH]c(-c2cccs2)nc1=S	-3	/
80	Cc1csc2nc(CSc3ccc(Cl)cc3)c(Br)n12	11	0.3
81	O=C(OCC(=O)N1CCCC1=O)c1ncc(Cl)c(Cl)c1Cl	-12	/
82	Cc1[nH]c2ccccc2c1C(c1ccncc1)N1CCOCC1 (stereo not given)	5	/
83	O=C(O)C12C3C4C1C1C2C3C41C(=O)O (stereo not given)	6	/
84	CCOC(=O)C1C(=O)C=C(c2cccs2)CC1c1ccc(C)cc1 (stereo not given)	9	0.7
85	CCOC(=O)c1cnc2c(ccc3ccccc32)c1NC1CC(C)(C)NC(C)(C)C1	12	2.2
86	CCCC(C)C(=O)N1CCC(Cc2ccccc2)CC1 (stereo not given)	14	4.6
87	CC(CS(=O)(=O)c1ccccc1)N1CCCCC1 (stereo not given)	4	-3.2
88	O=C1NC(=NC2CCCC2)S/C1=C\c1cn(-c2ccccc2)nc1-c1cccs1	0	/
89	COc1ccc(Cn2c(=O)c3ccccc3n3c(-c4ccccc4O)nnc23)cc1	-18	/
90	Cc1ccc(-c2noc(CCC(=O)N3CCCCC3C)n2)cc1 (stereo not given)	7	/
91	O=C1NC(=Nc2ccccc2)SC1Cc1ccc(Br)cc1 (stereo not given)	/	-2.4
92	COc1ccc(C(C#N)=C2C=CC(=NO)C=C2)cc1	/	-0.8
93	O=C(O)c1cc(C(=O)O)c2cccc(Cl)c2n1	4	-0.5
94	COc1ccc(N/C=C(/C#N)c2nc(-c3cccs3)cs2)cc1	-4	2.0
95	N#Cc1c(NC(=O)CCCCl)sc2c1CCC2	-14	-0.2
96	COC(=O)C1=C(NC(=O)COc2ccccc2)CCS1	20	/
97	O=C(NCCO)c1cc2sc3ccccc3c2s1	16	-1.8
98	CCCOc1ccc(/C=C2/SC(=O)N(CN3CCCCC3)C2=O)cc1	9	1.2
99	Clc1nc2ccccc2c(N2CCOCC2)c1CNc1ccc(N2CCOCC2)cc1	1	-2.6
100	Clc1ccc(CSc2nsc(SCc3ccc(Cl)cc3)n2)cc1	/	1.3
101	CN(C)C(CNC(=O)Cc1ccc(Cl)c(Cl)c1)c1ccco1 (stereo not given)	-8	/
102	COc1ccc(OC)c(-c2csc(=NC(C)C)n2/N=C2\C(=O)N(C)c3ccccc32)c1	-285	/
103	O=C(c1c[nH]c2ccccc12)C(c1ccccc1)N1CCN(c2ccc(O)cc2)CC1 (stereo not given)	-7	/
104	C/[N+]([O-])=C\c1ccc(C(F)(F)F)cc1	-12	/
105	O=C(O)CC1(CC(=O)Nc2ccc(OC(F)(F)F)cc2)CCCC1	/	-2.0
106	CCOC(=O)C1=C(C)N=c2s/c(=C\c3ccc(Br)o3)c(=O)n2C1c1cc(OC)ccc1OC (stereo not given)	/	-0.1
107	O=C(Nc1ccc(SC(F)(F)F)cc1)Nc1ccc(Sc2ccc(Cl)cc2)nc1	/	-1.3
108	CC(C)CC1NC(=O)N(Cc2cccc(Br)c2)C1=O (stereo not given)	-1	/
109	Cc1cc(NC(=O)c2cccs2)no1	8	/
110	CCOC(=O)C1=C(c2ccc(Cl)cc2)Sc2nnc(C(F)(F)F)n2N=C1N	10	7.3
111	CCC1(CC)C(C)=[N+](C)c2ccccc21	6	1.7
112	CC(C#N)(NC(=O)COc1ccccc1Br)C1CC1 (stereo not given)	-3	/
113	Cc1ccccc1Cn1c(C)c(CNC2CCCC2)c(C(=O)O)c1C	2	-1.5
114	CC1(C)Cc2ccccc2-c2nc(NCCCO)n(-c3ccccc3)c(=O)c21	15	6.4
115	Nc1ccccc1Sc1ccc(-c2cnc3ccccc3n2)cc1[N+](=O)[O-]	/	0.6
116	NS(=O)(=O)c1ccc(NC(=O)COC(=O)c2cccc(Cl)c2)cc1	-7	/
117	COC(=O)c1c(NC(=O)CC2Sc3ccccc3NC2=O)sc(C)c1C (stereo not given)	20	/
118	O=C(O)c1cccnc1Sc1ccc(Cl)cc1	/	2.6
119	CCOC(=O)c1nn(-c2ccccc2)c2nc(=O)c(C#N)c(-c3ccccc3)n12	/	1.3
120	Cc1ccc(COc2cccc3c2CCN(C)C3=O)cc1	5	/

Next section
item	SMILES	Sa helicase inh	MgrA-DNA mod
121	C(=NC1=NN(c2ccccc2)CC1)c1ccccc1	-4	4.5
122	CCNC(=O)C1CCCN(S(=O)(=O)N(C)c2ccc(F)cc2)C1 (stereo not given)	-30	/
123	O=C(COC(=O)c1ccc2c(c1)OCCO2)NC1CCCC1	17	/
124	CCN(CC)c1ccc(C#N)cc1	/	-1.1
125	COc1ccc(NC(=S)Nc2ccc(N3CCOCC3)c3nonc23)cc1OC	10	3.1
126	CC(=O)NC(=O)CSc1nnc(NC(=O)CSc2nc3ccccc3s2)s1	8	0.9
127	O=C(NC(=O)c1c(Cl)cccc1Cl)Nc1ccccc1Oc1ccc(Cl)cc1Cl	/	1.8
128	COc1ccccc1N(CC(=O)Nc1ccc(Oc2ccccc2)cc1)S(C)(=O)=O	8	/
129	Cc1c(C(N)=O)sc2nc(-c3ccccc3)cn12	9	/
130	COc1ccc(-c2csc(/C(C#N)=C(\O)CN3C(=O)c4ccccc4C3=O)n2)cc1OC	-11	/
131	C=CCC(C#N)(CC=C)c1ccc(OC)c(OC)c1	21	/

Single records (already shown).
`Cc1nc(C(=O)O)nn1-c1cccc(C(F)(F)F)c1` as listed: Sa helicase inh = 6; MgrA-DNA mod = /
`CCOC(=O)c1cnc2c(ccc3ccccc32)c1NC1CC(C)(C)NC(C)(C)C1` as listed: Sa helicase inh = 12; MgrA-DNA mod = 2.2

An excerpt, so the mix of outcomes need not match the whole.
